VDR inhibitor – Inhibitors of the vitamin D receptor (VDR): qHTS | Vitamin D3 receptor (Homo sapiens), P11473 | VDR-SRC2-3 peptide fluorescence polarization, 2 h | Potency, µM, for inactives: max response, negative = inhibition, most hits filed as inhibitors | hit rate 0.93% among 400,000 | AID 504847, 2011; active = well fitted inhibition curve with a large enough effect; inconclusive = small, poorly fitted or top-dose-only effect, or another doubt; inactive = no such curve, though single readings can be large or run the other way; note: series mostly up to about 120 µM
Target sequence (P11473 whole entry, looked up): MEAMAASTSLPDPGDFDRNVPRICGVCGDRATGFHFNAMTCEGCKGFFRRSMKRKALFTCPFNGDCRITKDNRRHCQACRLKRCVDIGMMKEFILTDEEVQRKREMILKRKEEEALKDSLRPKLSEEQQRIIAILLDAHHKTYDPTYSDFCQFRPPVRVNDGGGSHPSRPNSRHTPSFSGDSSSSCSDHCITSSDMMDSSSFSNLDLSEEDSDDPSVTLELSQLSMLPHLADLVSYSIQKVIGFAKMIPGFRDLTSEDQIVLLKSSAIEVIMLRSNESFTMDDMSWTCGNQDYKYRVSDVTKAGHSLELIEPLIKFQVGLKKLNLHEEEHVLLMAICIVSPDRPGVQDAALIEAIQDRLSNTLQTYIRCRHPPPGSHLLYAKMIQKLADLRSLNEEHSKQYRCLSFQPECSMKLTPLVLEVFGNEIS
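Inhibition of the VDR/SRC2-3 peptide interaction is quantified by fluorescence polarization. Compounds (23 nl, pintool) incubate with the reagents for 2 hours at ambient room temperature.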
Active calls of the source: *; ? = inconclusive; & = joins results of further samples. % is set by controls: 0 for no effect and ±100 for the full control effect; potency is the fitted concentration of half-maximal effect. Not all compounds are listed; rates above refer to the full screens.

| canonical_smiles | VDR inhibitor |
| --- | --- |
| O=C(Nc1nc2c(s1)CCc1ccccc1-2)c1cccs1 | 15.1% |
| O=C(/C=C/c1ccc(F)cc1)c1cc(Br)ccc1O | ? |
| CCN(c1ccccc1)c1nc(N)nc(C#N)n1 | 13.1% |
| Cc1ccc(NC(=O)CSCC(=O)NC2=NCCS2)cc1 | 19.0% |
| Cn1c(=O)c2c(nc(Br)n2Cc2ccccc2Cl)n(C)c1=O | 13.3% |
| Cc1ccc(-n2c(SCC(=O)N3CCOCC3)nc(O)c(Cc3ccccc3)c2=O)cc1 | -22.2% |
| c1cncc(CNc2c3c(nc4nnnn24)CCCC3)c1 | -2.3% |
| CCOC(=O)c1nnn(-c2nonc2N)c1CSc1ccc(C)cc1 | -15.4% |
| CCOC(=O)c1c(C)[nH]c(C)c1S(=O)(=O)N1CCCC(C(=O)Nc2ncccc2C)C1 (stereo not given) | 3.9% |
| COc1ccc(C(=O)CSc2nc(N)nc(SC)c2C#N)cc1 | -3.3% |
| COc1ccc(-n2c(O)c(/C=N/NS(=O)(=O)c3cccc([N+](=O)[O-])c3)c3ccccc3c2=O)cc1OC | -18.8% |
| Nc1cc(=O)[nH]c(SCC(=O)N2CCCCC2)n1 | 8.5% |
| CCN(CC)C(=O)C1CCCN(C(=S)Nc2cccc3ccccc23)C1 (stereo not given) | -7.5% |
| Cc1nc2ccccc2c(=O)n1/N=C/c1ccccn1 | -3.4% |
| COc1ccc(C2CC(c3ccccc3)=NN2S(=O)(=O)c2ccccc2)cc1 (stereo not given) | 2.1% |

Reprinted from the part before: six entries, then new ones.
| canonical_smiles | VDR inhibitor |
| --- | --- |
| COc1ccc(C(=O)CSc2nc(N)nc(SC)c2C#N)cc1 | -3.3% |
| COc1ccc(-n2c(O)c(/C=N/NS(=O)(=O)c3cccc([N+](=O)[O-])c3)c3ccccc3c2=O)cc1OC | -18.8% |
| Nc1cc(=O)[nH]c(SCC(=O)N2CCCCC2)n1 | 8.5% |
| CCN(CC)C(=O)C1CCCN(C(=S)Nc2cccc3ccccc23)C1 (stereo not given) | -7.5% |
| Cc1nc2ccccc2c(=O)n1/N=C/c1ccccn1 | -3.4% |
| COc1ccc(C2CC(c3ccccc3)=NN2S(=O)(=O)c2ccccc2)cc1 (stereo not given) | 2.1% |
| CC(=O)NC1(C(F)(F)F)C(=O)Nc2c1c(=O)[nH]c(=O)n2CC(C)C (stereo not given) | -1.6% |
| COc1cc2c(cc1OC)CN(Cc1cc(OC)c3c(c1)OCO3)CC2 | 5.6% |
| Cc1noc(NS(=O)(=O)c2cccc3c(N(C)C)cccc23)c1C | 25.1µM* |
| CC1(C)CC(=O)C(CS(=O)(=O)c2ccccc2)=C(O)C1 | ? |
| Cn1ncc(Cl)c1C(=O)Nc1nc2ccc(Cl)cc2s1 | -19.3% |
| Cc1ccc(CN2CCCC(C(=O)N3CCCC3)C2)cc1 (stereo not given) | -2.4% |
| CN(N=Nc1cccc([N+](=O)[O-])c1)c1cccc([N+](=O)[O-])c1 | 5.5% |
| CN1CCN(S(=O)(=O)c2cccc(C(=O)Oc3ccc(Br)cc3F)c2)CC1 | 0.4% |
| Cc1ccc(S(=O)(=O)N2CCCCC2)cc1NC(=O)C1CCCO1 (stereo not given) | -0.5% |
| COc1ccc(NC(=O)CSc2nc3ccccc3n2CC(=O)N(C)c2ccc(F)cc2)cc1 | 4.6% |
| Cc1ccc(NC(=O)CSc2ncc3c(n2)-c2ccccc2N(Cc2cccc(F)c2)S3(=O)=O)cc1F | -4.9% |
| COc1ccccc1CNC(=O)COC(=O)c1ccc(C)c(S(=O)(=O)N2CCOCC2)c1 | 2.7% |
| CC(=O)NC(CC(=O)O)C(=O)O (stereo not given) | -0.5%&9.0% |
| COc1ccc(NS(=O)(=O)c2cccc(NC(=O)c3ccc(Cl)nc3)c2)cc1 | -10.9% |
| C=CCSc1nsc(NC(=O)Nc2ccc(F)cc2)n1 | -1.0% |

Laid out differently: entries from further up.
VDR inhibitor,Molecule
-10.9%,COc1ccc(NS(=O)(=O)c2cccc(NC(=O)c3ccc(Cl)nc3)c2)cc1
-19.3%,Cn1ncc(Cl)c1C(=O)Nc1nc2ccc(Cl)cc2s1

Next part:
| canonical_smiles | VDR inhibitor |
| --- | --- |
| O=C(c1ccc(S(=O)(=O)N2CCc3ccccc3C2)cc1)N1CCCCC1 | 2.5% |
| COc1ccc(S(=O)(=O)N2CCOCC2)cc1NC(=O)[C@@H]1CCCN1C(=O)c1cccs1 | -0.4% |
| COc1ccccc1/C=C/C(=O)OC(C)CN1CCCCC1 (stereo not given) | -2.8% |
| CCOC(=O)C1C(=O)CC(O)(c2ccccc2)CC1c1ccccc1 (stereo not given) | -6.6% |
| O=C(NN=C1C2CC3CC(C2)CC1C3)c1ccccc1O | 0.5% |
| CC(=O)Oc1cccc(/C=N\NC(=O)C(=O)N/N=C/c2cccc(OC(C)=O)c2)c1 | -3.2% |
| COc1ccccc1N1CCN(C(=O)c2cc(=O)c3ccc(C)cc3o2)CC1 | 0.4% |
| COC(=O)[C@]1(C)N[C@H](CN(C)C(=O)Nc2ccccc2)[C@@H]2C(=O)N(C)C(=O)[C@@H]21 | 5.3% |
| CCN(CC)S(=O)(=O)c1ccc(N2CC(C(=O)NCCC3=CCCCC3)CC2=O)cc1 (stereo not given) | -3.9% |
| CCOc1ccc(CCNC(=O)COC(=O)Cc2c[nH]c3ccccc23)cc1OCC | -1.5% |
| CCC(C)C(NC(=O)OCc1ccccc1)C(=O)OCN1C(=O)c2ccccc2C1=O (stereo not given) | ? |
| CCC[C@@H](NS(=O)(=O)c1ccc(C)cc1)C(=O)Oc1ccc2c3c(c(=O)oc2c1)CCC3 | -19.2% |
| CCCCNC(=O)c1ccc2c(c1)N(Cc1ccc(F)cc1)C(=O)c1ccccc1S2=O (stereo not given) | -10.4% |
| COc1ccccc1CN1CCCC2(CCN(C(=O)c3c(C)noc3C)CC2)C1 | 0.4% |
| COc1ccc(C2=C(C=C(C#N)C#N)C(c3ccccc3C)c3ccccc3O2)cc1OC (stereo not given) | -8.3% |

Following part:
| canonical_smiles | VDR inhibitor |
| --- | --- |
| COc1cc(NC(=O)c2cnc(N)o2)cc(C(=O)Nc2cccc(C(F)(F)F)c2)c1 | -11.9% |
| COc1ccc2c(c1OC)C(=O)N(c1ccc(C)cc1)C2 | 19.2% |
| CC(=O)N(CC(=O)O)c1ccccc1 | -21.2% |
| Cc1ccc(S(=O)(=O)N2CCN(C(=O)COC(=O)c3cc(C)oc3C)CC2)cc1 | -1.1% |
| CCc1cccc(Nc2cnn(C34C[C@@H]5C[C@@H](CC(CC(=O)O)(C5)C3)C4)c(=O)c2Cl)c1 | -3.1% |
| Cc1nc(N2CCN(C(=O)c3ccco3)CC2)c2c3c(sc2n1)CC(C)CC3 (stereo not given) | -20.4% |
| Cc1ccc(NC(=S)N/N=C2/CCCCc3ccccc32)cc1 | -0.6% |
| COc1cccc(NC(=O)n2ncc3c(C)cccc32)c1 | -2.7% |
| CCOC(=O)N1CCN(C(=O)c2ccc3c(c2)N(Cc2ccc(F)cc2)CCS3)CC1 | ? |
| COc1ccc(-c2nc(SCC(=O)NCC3CCCO3)c(-c3ccc(C)cc3)[nH]2)cc1OC (stereo not given) | -7.6% |
| COc1ccc2[nH]c3c(c2c1)CCN1C(=O)N([C@@H](C)C(=O)NCCc2ccc(OC)c(OC)c2)C(=O)[C@]31C | -11.8% |
| O=C(CCCn1c(=O)[nH]c2ccsc2c1=O)NCc1cccs1 | -9.8% |
| Cc1ccc(C(C)C)c(OCC(=O)N2CCC(c3nc4ccccc4o3)CC2)c1 | 8.8% |
| CNc1ccnc(-c2c(C)noc2C)n1 | 7.7% |
| CCOC(=O)c1c(NC(=O)CN(C)C)sc(C(=O)N(CC)CC)c1C | 11.8% |

(next part)
compound	VDR inhibitor
Cc1cccc(-c2nnn3c2nc(NCCc2ccc(S(N)(=O)=O)cc2)c2ccccc23)c1	-1.0%&7.3%
CC(=O)c1ccccc1C(=O)N1CCCC(CCC(=O)N2CCN(c3ccccn3)CC2)C1 (stereo not given)	-12.8%
CCOc1ccccc1-n1nnc(-c2nsc(NC(=O)c3ccc(C)cc3)n2)c1C	18.8%
S=C(NCCc1ccccc1)Nc1ccccc1	5.7%
O=S(=O)(CCN1CCCCC1)Oc1ccc(Cl)cc1Cl	-12.3%
COc1c(O)cccc1/C=N/NC(=O)Cn1ccnc1C	3.0%
C=CCNC(=S)N/N=C/c1ccc(-c2cccc([N+](=O)[O-])c2)o1	-2.1%
CCN(CC(=O)Nc1c(F)cccc1F)C(=O)c1ccc(N2CCCC2=O)cc1	2.9%
COc1ccc(NC(=O)N2CCCC3(CCN(C(C)=O)CC3)C2)cc1	5.7%
Cc1ccccc1C(=O)NNC(=O)c1cc(N)cc([N+](=O)[O-])c1	-3.0%
O=C(NCc1ccccc1)c1cccc(COc2ccc3c(c2)CCC3)c1	1.4%
O=C(NC(=S)Nc1ccc(N2CCCCC2)cc1)c1ccc2c(c1)OCCO2	-18.5%
CCc1nnc(NC(=O)CS(=O)(=O)c2ccccc2)s1	6.9%
Cc1cc(C)nc(NS(=O)(=O)c2ccc(NC(=O)c3ccccc3C)cc2)n1	-6.3%
O=C(Nc1cc(Cl)cc(Cl)c1)C1C2C=CC3(O2)C1C(=O)N(CCCN1CCOCC1)C3C(=O)NC1CCCCC1 (stereo not given)	-8.1%
CC(=O)Nc1ccc(NC(=O)C(C)OC(=O)CC2CCCCC2)cc1 (stereo not given)	-1.9%
CC(C)n1nnnc1-c1ccc(Cl)cc1	6.7%
Cc1cc(Nc2nnnn2-c2ccccc2)n(-c2ccc(Cl)cc2)n1	-3.2%
CCC(=O)Nc1ccc(CCC(=O)N2CCCC2)cc1	-5.0%
Cc1ccc2nc(-c3ccccc3)cc(C(=O)NCC(c3ccco3)N(C)C)c2c1 (stereo not given)	-1.1%
Cc1c(C(=O)NC(C)CCc2ccccc2)cccc1[N+](=O)[O-] (stereo not given)	-4.7%
COc1ccc(NC(=O)Cc2coc3cc(C)c(C(C)C)cc23)cc1S(=O)(=O)N1CCOCC1	-1.7%
COc1ccc2c(c1)C(=O)[C@@H](OC(=O)NCc1ccco1)[C@H](c1ccc(OC)c(Br)c1)O2	?
Cc1ccc(C)c(/C(O)=C2\C(=O)C(=O)N(CCCn3ccnc3)C2c2cccnc2)c1 (stereo not given)	-3.5%
Cc1cccc(CS(=O)(=O)CC2Nc3ccc(C(=O)NCc4ccccc4)cc3NC2=O)c1 (stereo not given)	12.8%

The list goes on:
compound	VDR inhibitor
COc1cc(NC(=O)c2cc(Cl)nnc2Cl)cc(OC)c1OC	4.6%
COc1ccccc1NC(=O)N1CCN(c2cc(-c3ccccc3)nc3ncnn23)CC1	7.0%
Cc1cccc(C(=O)Nc2ccc3ccccc3c2)c1	-3.8%
CC(C)N(Cc1nccn1C)C(=O)CC1C(=O)NCCN1Cc1ccc(F)cc1 (stereo not given)	4.1%
Cc1ccc(-n2cc(CNCCCn3ccnc3C)c(-c3ccc(F)cc3)n2)cc1	-13.1%
Cc1cc(C)c(-c2cc(C(=O)Nc3cc(C)ccc3C)[nH]n2)c(O)c1	22.9%
Cc1cc(C(=O)COC(=O)c2ccc[nH]c2=O)c(C)n1-c1ccccc1F	-27.4%
OCCCn1c(-c2ccccc2)nc(=S)c2c1CCCC2	16.6%
COc1ccc(CNC(=O)c2ccccc2NC(=O)C2=CSCCO2)c(OC)c1	17.8%
O=C1CC(c2ccco2)CC(O)=C1C=NCCO (stereo not given)	12.3%
N#Cc1c(Cl)cccc1Oc1ccc(S(=O)(=O)Nc2ccccc2)cc1	30.7%
COC(=O)N1CCC[C@@]2(CCN(C(=O)Nc3cccc(F)c3)C2)C1	0.4%
CC(=O)c1cccc(NC(=O)CO/N=C2/CCCc3nonc32)c1	-9.4%
Cc1ccc(C(=O)NCCCn2ccnc2)cn1	10.0%
CC(NC(=O)CN(C)S(=O)(=O)c1cccc2nsnc12)c1ccccc1 (stereo not given)	-14.0%
Cc1cc(C)cc(OCc2nnc(N)s2)c1	-21.8%
C1CN(c2nc3nonc3n3nnnc23)CCO1	6.5%
CCCCCSc1nc(C)c(CC(=O)O)c(=O)[nH]1	1.0%
Cc1ccc(C)c(Cn2cnc3ccccc3c2=O)c1	13.7%
Cc1ccccc1NC(=O)Cn1c(=O)n(Cc2ccc3c(c2)OCO3)c(=O)c2ccccc21	-11.0%
COc1ccc(S(=O)(=O)N2CCN(CC(=O)Nc3ccc(F)c(F)c3)CC2)cc1	2.4%
COc1ccc(CNc2cc(-c3ccccc3CN(C)C)ncn2)c(OC)c1	-12.8%
Cc1ccc(C)c(NS(=O)(=O)c2cc(C(=O)NCc3ccco3)ccc2C)c1	13.3%
CC(=O)c1ccc(Nc2ccc3cc(S(=O)(=O)N4CCCC4)ccc3n2)cc1	9.9%
Cc1ccccc1NC(=O)c1ccc(NC(=O)N2CCSc3ncccc32)cc1	13.4%

Next section.
compound	VDR inhibitor
COc1cccc(N2CCN(C(=O)CN3CCSc4ccc(S(=O)(=O)N(C)C)cc43)CC2)c1	9.1%
C/C(=N\NC(=O)CC#N)C1COc2ccccc2O1 (stereo not given)	?
Cc1cccc(OCc2nnc(SCC(=O)O)n2Cc2ccccc2)c1	-11.0%
FC(F)(F)c1ccc(-c2nc(=S)[nH][nH]2)cc1	?
CCOC(=O)CSc1nnc(NC(=O)NC(C)C)s1	-5.7%
COc1cccc(CNC(=O)c2cc3cccc4c3n2CC(C)S4)c1OC (stereo not given)	7.9%
Cn1c(=O)c2c(nc(Cl)n2CCOc2ccccc2)n(C)c1=O	-14.6%
CCc1ccc(N2C(=O)C3NN=C(C(=O)OCc4ccccc4)C3C2=O)cc1 (stereo not given)	6.5%
COc1ccc(CCn2c(=O)[nH]c3cc(C(=O)N4CCN(c5ccccn5)CC4)ccc3c2=O)cc1OC	-24.7%
Cc1ccccc1NC(=S)NNC(=O)c1csc2c1CCC(C)C2 (stereo not given)	-6.2%
COCC1CCN(Cc2nc(-c3cccs3)no2)C1 (stereo not given)	1.4%
Fc1ccc(/C=N/c2c(-c3ccc(F)cc3)nc3n2CCS3)cc1	-0.1%

Source: PubChem BioAssay
